# RE007 growth inh: less growth of the S. pombe RE007 Vpr strain; Potency, µM (doses to about 92.2 µM), inactives show at the highest dose activity change, negative = less growth; AID 651644; S. pombe RE007 Vpr strain, BacTiter-Glo ATP luminescence, 24 h; control for the full effect not named in the record; actives 0.21% (n = 360,000); active = well fitted falling curve with a large enough effect; inconclusive = small, poorly fitted or top-dose-only effect; inactive = no such curve, though single readings can be large or run the other way;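 note: % is set by controls: 0 for no effect and ±100 for the full control effect; nearly all actives have a fitted effect of over 50% in size; the assay follows cell death caused by Vpr and the record does not say whether a fall means rescue or toxicity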
#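 Fission yeast strain RE007, carrying one chromosomally integrated HIV-1 vpr copy, was seeded at OD 0.01 in PMG+AL medium with 23 nL pinned compound. After 24 h at 30 °C and 99% humidity, viability was read by BacTiter-Glo luminescence.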
# StopGo reporter: FMDV 2A StopGo reporter, luciferase signal; human cells with a luciferase reporter of 2A StopGo recoding; control for the full effect not named in the record; Potency, µM (doses to about 57.9 µM), for the others: top-dose signal change, negative = less light; actives 1.2% (n = 410,000); AID 1159524; active = well fitted falling curve with a large enough effect; inconclusive = small, poorly fitted or top-dose-only effect; inactive = no such curve, though single readings can be large or run the other way; tested in HEK293T cells; note: % is set by controls: 0 for no effect and ±100 for the full control effect; nearly all actives have a fitted effect of over 45% in size; luciferase light after 4 h
# SARS PLP yeast: blocks SARS-CoV papain-like protease in a yeast assay. S. cerevisiae expressing SARS-CoV PLpro, growth rescue; control for the full effect not named in the record. Potency, µM (highest dose often 32.9 µM), without a hit: top-dose activity, positive = growth rescue. actives 0.19% (n = 330,000). AID 485353; active means well fitted rising curve with a large enough effect; inconclusive means small, poorly fitted or top-dose-only effect; inactive means no such curve, though single readings can be large or run the other way; note: 0% is about no effect; nearly all actives have a fitted effect of over 55% in size; growth read by luminescence after 48 h
# * = called active by the depositor; ? = inconclusive; [ ] = another dose, or the depositor's remark. Potency is the fitted concentration of half-maximal effect. A portion of the library; the hit share may differ from the screen's.
SMILES	RE007 growth inh	StopGo reporter	SARS PLP yeast
COc1cc(C(=O)NNC(=S)NCc2ccco2)cc(OC)c1OC	13%	3%	0%
Cc1ccc(SCc2cc(=O)n(C)[nH]2)cc1	2%	14%	2%
O=C(COC(=O)c1cc(Br)ccc1O)Nc1ccc2c(c1)OCO2	18%	22%	-1%
CC1(C)C[C@H]2C3=CCC4[C@@]5(C)CC[C@H](O)[C@](C)(CO)C5CC[C@@]4(C)[C@]3(C)C[C@@H](O)[C@@]2(CO)[C@@H](O)[C@@H]1O (stereo partly drawn)	-2%	-8%	1%
CN(C)C(=O)OCc1c(-c2ccccc2)ncc2ccccc12	15%	-28%	3%
Cc1ccc(C)c(NC(=O)CN(C)C(=O)C2CCCC2)c1	2%	-3%	0%
CC(=O)c1cccc(NC(=O)COC(=O)c2ccc3c(c2)OCO3)c1	2%	-9%	-2%
Cn1cc(C(=O)OCC(=O)N2CCCCC2)c2ccccc21	3%	18%	-2%
CCN(CC)CCCN=C1N[C@@H](c2cccc(F)c2)C(C(=O)OC)=C(C)N1Cc1ccccc1	-15%	0%	1%
CC(C)CCOc1ccccc1C(N)=O	15%	-15%	0%
CC(C)CNC(=O)/C=C/C=C/CCCC/C=C/c1ccc2c(c1)OCO2	3%	-15%	-3%
CCC(C)N(C(=O)COC(=O)CSc1ccc(C)c(C)c1)C1CCS(=O)(=O)C1 (stereo not drawn)	-9%	-9%	-11%
CCOC(=O)c1oc2ccccc2c1CN1CCCCC1	5%	-6%	1%
OCC[C@H]1C[C@@H](O)[C@H](O)[C@]2(OCCCc3ccccc32)O1	-6%	-19%	1%
Cc1cccc(Nc2c([N+](=O)[O-])cc(C(=O)N3CC(=O)Nc4ccccc43)cc2[N+](=O)[O-])c1	9%	-22%	0%
COc1ccccc1C(=O)NCC(=O)OC(C)C(=O)NC1CCCCC1C (stereo not drawn)	-9%	-4%	0%
CC(NCC(=O)Nc1ccccc1C(=O)NC1CC1)c1cccc(C(F)(F)F)c1 (stereo not drawn)	1%	?	-7%
Cc1ccc([N+](=O)[O-])cc1S(=O)(=O)Nc1ccc(C(=O)NCC2CCCO2)cc1 (stereo not drawn)	-4%	2%	0%
CC(C)Cn1c(N)c(C(=O)COC(=O)c2nccnc2N)c(=O)n(C)c1=O	2%	-27%	1%
O=C(OCC(=O)N1CCN(c2ccccc2)CC1)c1ccc([N+](=O)[O-])s1	40µM*	-7%	-26%
CCOc1ccccc1CNC(=O)c1cn(C)c(=O)c2c1c1ccccc1n2C	1%	3%	0%
CCCCCCSc1ccc(-c2nc3ccc(Cl)cn3c2NCCCC)cc1OC	27%	-28%	20%
Cc1cccc(NC(=O)CNC(=O)c2cccc(S(=O)(=O)NCc3cccs3)c2)c1C	-8%	34%[activator]	-4%
CC(=O)C[C@H](O)CC(=O)[C@H]1OC(=O)[C@H](C)C/C=C\Cc2ccccc21	8%	-12%	2%
COc1ccc(OCC(O)CNC(=O)/C=C/c2cccc([N+](=O)[O-])c2)cc1 (stereo not drawn)	8%	-22%	0%
CC(=O)NS(=O)(=O)c1ccc(NC(=O)C(C)NS(=O)(=O)/C=C/c2ccccc2)cc1 (stereo not drawn)	3%	-4%	-6%
COC(=O)C1=C(c2ccc(OC(F)(F)F)cc2)C[C@@H]2CC[C@H]1N2C(=O)NCCOc1ccc(OC)cc1	2%	?	6%
O=C(c1cc(-c2ccc(F)cc2)nc2ccccc12)N1CCN(C2CCS(=O)(=O)C2)CC1 (stereo not drawn)	-5%	7%	2%
CCOC(=O)[C@@H]1[C@H]2COc3ccccc3[C@@H]2N2C(=O)N(c3cccc(F)c3)C(=O)[C@@]12C	12%	19%	2%
CCC(CC)NC(=O)CSc1ccc(S(=O)(=O)N2CCOCC2)cn1	-7%	-21%	-3%
CC[C@]12c3[nH]c4cc(-c5ccco5)ccc4c3CCN1C(=O)[C@@H](CC(=O)NCc1ccco1)C[C@@H]2C(=O)N1CCN(C(=O)C2CC2)CC1	-2%	-16%	14%
CCN(CC)C(=O)[C@H]1C[C@H](CC(=O)NCC23CC4CC(CC(C4)C2)C3)C(=O)N2CCc3c([nH]c4cc(-c5ccco5)ccc34)[C@]12C	14%	?	1%
Cc1ccc(S(=O)(=O)N2CCOCC2)cc1NC(=O)CN1C(=O)NC(C)(c2ccc(Cl)cc2Cl)C1=O (stereo not drawn)	-9%	?	1%
CCCCNC(=O)CCC(=O)Nc1ccc2nc(N3CCC(C)CC3)cc(C)c2c1	-2%	-24%	1%
Cc1ccc2c(c1)[C@H]1[C@H](CO2)[C@H](c2ccccc2)[C@]2(C)C(=O)N(Cc3ccccc3)CC(=O)N12	0%	-15%	-6%
CCn1nc(C(=O)Nc2nc(-c3ccccn3)cs2)c2ccccc2c1=O	-11%	-2%	-11%
Cc1cc(N2O[C@]34C=C[C@]25C[C@@H](O)CC[C@]5(C)C3CC[C@]2(C)[C@@H]([C@H](C)/C=C/[C@H](C)C(C)C)CC[C@H]24)no1 (stereo partly drawn)	9%	-23%	-1%
CCN(CC(=O)Nc1ccc2c(c1)OCO2)CC(=O)Nc1ccccc1C(F)(F)F	-1%	-5%	-1%
CC(C)NC(=O)N(C)C[C@H]1Oc2ccc(NC(=O)Nc3ccccc3)cc2C(=O)N([C@H](C)CO)C[C@@H]1C	17%	-17%	10%
CCOc1ccccc1C(=O)NCC(=O)OCC(=O)c1c(N)n(C)c(=O)n(C)c1=O	4%	-9%	0%
CCC(C)Nc1nc2c(C)cccn2c(=O)c1C=Nc1ccc(OC)cc1 (stereo not drawn)	-13%	-7%	0%
CCCN(CC(=O)Nc1ccccc1C)C(=O)C1CCCN(C(=O)c2ccc(Cl)cc2)C1 (stereo not drawn)	17%	6%	-1%
Cc1cc(C)c(NC(=O)CNC(=O)CNC(=O)C2CCCCC2)c(C)c1	7%	-6%	-2%
COc1ccc(OCCOC(=O)C(C)NS(=O)(=O)c2ccc(NC(C)=O)cc2)cc1 (stereo not drawn)	-3%	-21%	2%
Fc1ccc2cnc(C3=CCCCC3)cc2c1	-8%	50%[activator]	13%
NNS(=O)(=O)c1ccc(N2CCCC2=O)c([N+](=O)[O-])c1	-1%	-3%	0%
COc1cccc(-c2sc3ccccc3c2-c2ccc(OCCN(C)C)cc2)c1	?	?	-6%
C=C(C)CNC(=S)NNC(=O)c1ccncc1	1%	-7%	2%
O=C(Cn1cnc2c(OCc3ccccc3)ncnc21)N[C@H](CO)Cc1cc2ccccc2[nH]1	-13%	0%	-2%
COC(=O)N[C@@H]1C[C@H]2[C@@H]3CC[C@H]4C[C@@H](OC)CC[C@]4(C)[C@H]3CC[C@@]12C	42%	?	6%
O=C(/C=C/c1ccc(Cl)cc1)OCC(=O)c1ccc[nH]1	1%	2%	-8%
COc1ccccc1OCCNC(=O)c1cccc(S(=O)(=O)N2CCN(Cc3ccccc3)CC2)c1	-3%	?	2%
CC1(C)CC(=O)C=C(c2cccc(Cl)c2O)C1	-3%	45%[activator]	2%
CCC(=O)NCCCc1nc2ccccc2n1Cc1ccccc1F	-17%	-12%	-1%
Cc1ccc(N(C(=O)c2ccc(S(=O)(=O)N(C)C)cc2)C2C=CS(=O)(=O)C2)cc1 (stereo not drawn)	9%	-8%	0%
COc1ccccc1NC(=O)Nc1ccc(C(N)=O)cc1	1%	19%	1%
CCOC(=O)/C=C/[C@H]1CCc2cccc(Cl)c2O1	-10%	3%	0%
CN1CCN(C2CCN(c3ccc(Nc4nnc(Cl)c(Nc5ccccc5S(C)(=O)=O)n4)c(OC(CF)CF)c3)CC2)CC1	1%	-19%	-4%
COC(=O)[C@@]12CCCCN1[C@H](c1ccc(-c3ccc(C(C)=O)cc3)cc1)[C@H]1C(=O)N(C)C(=O)[C@H]12	-2%	?	9%
O=S(=O)(NCCc1ccccn1)c1cc(Cl)cc(Cl)c1O	7%	33%[activator]	4%

# Continued.
SMILES	RE007 growth inh	StopGo reporter	SARS PLP yeast
O=S(=O)(Nc1ccccc1N1CCOCC1)c1c(F)cc(F)cc1Br	-13%	-14%	-1%
CCOC(=O)N(NC(=O)C(O)(C(C)C)C(C)C)c1ccccc1	-10%	-3%	0%
COc1ccccc1N1CCN(C(=O)CCNC(=O)c2ccco2)CC1	1%	30%[activator]	3%
COc1ccc(NC(=O)CCC(=O)c2ccc(Cl)cc2)cn1	1%	12%	2%
O=c1cc(-c2ccccc2)cc(-c2ccccc2)n1O	-17%	-4%	-22%
COc1ccc(CCNC(=O)CCn2c(=O)c3ccccc3n(CC(=O)NCC3CCCO3)c2=O)cc1OC (stereo not drawn)	10%	5%	2%
C[C@H](CO)N1C[C@H](C)[C@@H](CN(C)C(=O)Nc2ccc(C(F)(F)F)cc2)Oc2c(NC(=O)Nc3ccc4c(c3)OCO4)cccc2C1=O	-1%	1%	-8%
Cn1nc(C(=O)NC2CCCC2)c2ccccc2c1=O	-4%	-4%	2%
CCN(C[C@H]1N[C@@](CC)(C(=O)OC)[C@H]2C(=O)N(C)C(=O)[C@@H]12)C(=O)c1ccc(F)cc1	3%	-12%	-4%
CCCCN(CC)CCNC(=O)CNC(=O)Cn1ccc2ccccc2c1=O	2%	-15%	2%
C[C@H](CO)N1C[C@H](C)[C@@H](CN(C)C(=O)Nc2ccc(C(F)(F)F)cc2)Oc2c(NS(=O)(=O)c3ccc(F)cc3)cccc2C1=O	-2%	45%[activator]	-6%
Cc1cc(Cl)ccc1OCC(=O)OCC(=O)Nc1cccnc1Cl	7%	-8%	0%
Cc1cccc(OCC(=O)OCC(=O)Nc2ccc(Cl)cn2)c1	-6%	-9%	-9%
O=C(COC(=O)c1cc(S(=O)(=O)N2CCOCC2)ccc1F)c1ccccc1	5%	-11%	2%
O=C(C[C@@H]1C/C=C\C[C@H](Cc2ccc(F)cc2)C(=O)OC[C@@H]2CCCN2C1=O)N[C@H](CO)Cc1ccccc1	7%	?	-5%
O=C(COC(=O)c1cnc(Cl)c(Cl)c1)c1ccc(F)cc1	11%	0%	-2%
CCCNC(=O)C(Cc1ccc(I)cc1)NC(=O)c1ccc2ccccc2n1 (stereo not drawn)	0%	-14%	-30%
O=S(=O)(NCc1ccccc1Br)c1ccccc1Br	12%	72%[activator]	1%
NS(=O)(=O)c1ccc(CCNC(=O)c2ccc3c(=O)n4c(nc3c2)CCCCC4)cc1	-4%	-12%	2%
C=CCCC(=O)N(C)CCO	1%	-3%	0%
CN(CCO)c1nc(N)c2c(N)nc3c(c2c1C#N)CC(=O)N3Cc1cccs1	6%	4%	-4%
O=C(NC1CCN(Cc2ccccc2)CC1)c1cccc(S(=O)(=O)Nc2ccc(SC(F)F)cc2)c1	-5%	?	3%
CC1CCCC(NC(=O)COC(=O)CCc2ccccc2)C1C (stereo not drawn)	-6%	-18%	-3%

# Screening results: PubChem BioAssay, National Center for Advancing Translational Sciences (NCATS)
